gsp ag – gsp mutant agonism; gsp mutant cells, cAMP HTRF, 30 min; control for the full effect not named in the record; Potency, µM (doses to about 76.9 µM), without a hit: at the highest dose activation (cAMP increase), most hits filed as activators; 0.13% of 340,000 active; AID 624287; active = well fitted activation curve with a large enough effect; inconclusive = small, poorly fitted or top-dose-only effect, or another doubt; inactive = no such curve, though single readings can be large or run the other way; cell line not stated here;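 also: phosphodiesterase inhibitor Ro 20-1724 added with compounds to block cAMP breakdown; potency is read from the fitted curve at half-maximal effect; nearly all actives have a fitted effect of over 60% in size; about a fifth of the inactives were tested at one dose only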
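Cells stably selected in G418 were plated at 2000/well, grown 16-24 hr, then given compounds in DMSO with the PDE inhibitor […] (300 uM solution added) for 30 min at 37C; cAMP was read by HTRF.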
TRPV1 potentiator – enhances activation of the human vanilloid receptor TRPV1; 0.02% of 320,000 active; TRPV1-expressing cells, Fluo-8 calcium influx, capsaicin EC20 potentiation; host cell line not named in the record; control for the full effect not named in the record; potentiation, % at 8.33 µM; AID 540277; Q8NER1; active means potentiation above 80%; inconclusive means 30% to 80%; inactive means below 30%; also: 0% is about no effect
Target sequence (Q8NER1 whole entry, looked up): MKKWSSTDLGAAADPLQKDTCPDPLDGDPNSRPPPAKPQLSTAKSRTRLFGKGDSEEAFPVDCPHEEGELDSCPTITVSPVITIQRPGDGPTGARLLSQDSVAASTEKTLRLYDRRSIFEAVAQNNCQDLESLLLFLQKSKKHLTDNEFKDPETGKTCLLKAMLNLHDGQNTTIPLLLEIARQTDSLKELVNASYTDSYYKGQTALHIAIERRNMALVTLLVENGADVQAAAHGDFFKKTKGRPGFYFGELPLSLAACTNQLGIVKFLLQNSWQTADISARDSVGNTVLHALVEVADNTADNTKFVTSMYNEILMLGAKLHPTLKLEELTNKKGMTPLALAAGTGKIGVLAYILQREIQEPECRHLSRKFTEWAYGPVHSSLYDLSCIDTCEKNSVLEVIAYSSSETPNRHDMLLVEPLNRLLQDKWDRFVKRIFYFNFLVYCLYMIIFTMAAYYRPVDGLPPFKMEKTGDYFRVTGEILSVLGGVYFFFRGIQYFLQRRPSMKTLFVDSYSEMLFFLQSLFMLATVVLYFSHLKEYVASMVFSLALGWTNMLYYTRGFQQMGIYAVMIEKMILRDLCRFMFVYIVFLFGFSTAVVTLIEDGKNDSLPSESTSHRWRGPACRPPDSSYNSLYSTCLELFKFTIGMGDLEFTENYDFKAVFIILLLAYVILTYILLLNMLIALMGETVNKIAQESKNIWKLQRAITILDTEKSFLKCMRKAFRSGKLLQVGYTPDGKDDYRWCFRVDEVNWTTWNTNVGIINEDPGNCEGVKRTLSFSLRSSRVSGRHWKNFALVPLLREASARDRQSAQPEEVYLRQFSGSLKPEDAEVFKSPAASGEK
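Fluo-8 calcium influx in TRPV1-expressing cells, kinetic read (ex 480/em 520 nm). Compound added and read 3 min for agonist activity, followed by capsaicin at EC20 final and 2 min further read for enhancement.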
gsp antagonist – antagonists of gsp mutant (McCune-Albright syndrome); Potency, µM (series often up to 76.9 µM), for the others: at the top dose activity change, negative = inhibition, most hits filed as inhibitors; AID 624288; 0.4% of 340,000 active; gsp-mutant cells, cAMP HTRF, 30 min; control for the full effect not named in the record; active = falling curve of any shape with a large fitted effect; inconclusive = falling curve, mostly with a smaller effect; inactive = flat or rising curve; cell line not stated here;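 also: intracellular cAMP measured with PDE inhibitor Ro 20-1724 present during compound exposure; potency is read from the fitted curve at half-maximal effect; % is scaled to controls: 0 for no effect and ±100 for the full control effect; nearly all actives have a fitted effect of over 65% in size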
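G418-selected cells were plated in DMEM/10% FBS for 16-24 h at 37C, then treated with compounds plus the PDE inhibitor […] (300 uM solution added) for 30 min at 37C. Intracellular cAMP was measured by HTRF after 30 min lysis at room temperature.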
ClpP mod – qHTS Assay for Activators of ClpP. purified B. subtilis ClpP, FRET peptide cleavage, 20 min. AID 651965, 2013. Potency, µM (titrated, usually from 57.5 µM), for inactives: at the top dose activity change, negative = active. 1.9% of 340,000 active; active = well fitted falling curve with a large enough effect; inconclusive = small, poorly fitted or top-dose-only effect; inactive = no such curve, though single readings can be large or run the other way; also: potency is read from the fitted curve at half-maximal effect; the source files actives as falling curves though it sought activators and does not explain the sign; nearly all actives have a fitted effect of over 65% in size; many hits overshoot -100%
Target sequence (P80244 whole entry, looked up): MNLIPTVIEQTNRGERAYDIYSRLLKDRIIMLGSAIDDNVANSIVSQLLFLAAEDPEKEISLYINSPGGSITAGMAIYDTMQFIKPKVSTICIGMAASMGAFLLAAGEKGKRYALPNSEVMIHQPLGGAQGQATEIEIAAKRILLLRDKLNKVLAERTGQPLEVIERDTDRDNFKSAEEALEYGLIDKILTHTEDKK
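FRET quenching reversal measured ClpP activation: 10 microg/mL B. subtilis ClpP at pH 8 with the FRET-FV decapeptide, read at 430 nm after 320 nm excitation. The 20-min minus 0-min signal was scaled between DMSO/no-enzyme wells and ADEP (5.8 microM final).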
Menin MLL FP FL – menin-MLL binding inhibition, fluorescein peptide | Fluorescence polarization, fluorescein-MLL peptide displacement from menin | FP activity change, % at 61.4 µM | 290,000 tested, under 10 active | AID 1766; inconclusive = falling polarisation curve, or a change in total fluorescence; inactive = total fluorescence flat and polarisation flat or rising; no compound was filed as active; the % refers to the polarisation; negative = inhibition;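 also: % of control where 0% means no effect; inhibitors lower the polarisation; unlabelled MLL peptide was the positive control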
Sfp inh – Sfp phosphopantetheinyl transferase inhibition. Biochemical Sfp PPTase activity, qHTS. 3.5% of 310,000 active. Potency, µM, without a hit: max response, negative = inhibition, hits mostly inhibitors. Q9F4F7; active = well fitted inhibition curve with a large enough effect; inconclusive = small, poorly fitted or top-dose-only effect, or another doubt; inactive = no such curve, though single readings can be large or run the other way;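 also: the enzyme is Sfp with the accession as filed and its product quenches rhodamine fluorescence; potency is read from the fitted curve at half-maximal effect; 0% = enzyme reaction without inhibitor and -100% = no enzyme wells; top concentration of the series not given in the record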
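Sfp 15 nM + cpd, 15 min RT; start w/ rhodamine-CoA 5 uM, BHQ-2-YbbR 12.5 uM (final); 50 mM Hepes pH 7.6, 10 mM MgCl2, 0.01% NP-40, 0.01% BSA; read 525/598 nm at 0 and 30 min.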
CtBP-E1A blk – inhibitors of CtBP/E1A interaction. 0.49% of 340,000 active. AlphaScreen GST-E1A/His-CtBP binding, 1536-well; stronger effect = lower value; control for the full effect not named in the record. AID 651724. activity change, % (concentration not given with the values); in the data active means activity change below about -65%; inconclusive means about -30% to -65%; inactive means above about -30%; also: % is scaled to controls: 0 for no effect and ±100 for the full control effect
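AlphaScreen with 125 nM GST-E1A and 125 nM His-CtBP (5X stocks) in Tris pH 8.0, 300 mM NaCl, BSA, Tween 20, TCEP. Compounds preincubated 2 h at 37 deg C, then glutathione donor/nickel acceptor beads added for 1 h at 37 deg C in dark.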
* = called active by the depositor; ? = inconclusive; . = no result given; [ ] = dose if it differs, or a comment. Outcome played no part in choosing rows; any-hit rate near 5.3%.

The line under a structure holds: Menin MLL FP FL | CtBP-E1A blk | TRPV1 potentiator | ClpP mod | gsp antagonist | Sfp inh | gsp ag
- CC(=O)Nc1c(Cl)cc2c(c1Cl)C(=O)c1ccccc1-2
→ . | -2 | . | -17% | -10% | . | 12%[15.4 µM]
- O=C1N[C@@H](Cc2ccccc2)COC(=O)[C@H](Cc2ccc(F)cc2)C/C=C\C[C@H]1CC(=O)N(CCO)Cc1ccccc1
→ . | -4 | . | 0.7% | ? | . | .
- Cc1cccc(N2CCN(C(=O)c3ccncc3)CC2C)c1 (stereo not given)
→ 2.1 | 0 | -18 | 0.4% | -9% | 10% | ?
- O=C(c1noc2c1CCCC2)N1CCCCC1
→ 0.2 | 7 | -5 | 0.9% | 7% | -2% | ?
- COc1cc(C(=O)NCC(=O)OCC(=O)c2cccc3ccccc23)cc(OC)c1OC
→ . | 9 | ? | 2.3% | 13% | 17% | -7%
- CCN1CCc2c(sc(NC(=S)NC(=O)c3ccco3)c2C(N)=O)C1
→ ? | -6 | -6 | . | -13% | 22µM* | -1%[15.4 µM]
- CCOc1ccc(S(=O)(=O)N2CCCCC2)cc1NC(=O)CSCc1c(C)noc1C
→ . | 3 | 4 | 0.3% | 0% | . | 3%[15.4 µM]
- COc1ccccc1NC(=O)N(C)C[C@@H]1Oc2ncc(Br)cc2C(=O)N([C@H](C)CO)C[C@@H]1C
→ . | -10 | . | 0.9% | . | . | ?
- O=C(CN1CCCCC1)n1c2ccccc2c2ccccc21
→ -0.3 | -6 | 9 | . | 0% | -4% | -12%[15.4 µM]
- COC(=O)C1=C(C)N=C2SCCC(=O)N2C1c1cccs1 (stereo not given)
→ 0.5 | 3 | 5 | -0.6% | 16% | 3% | -20%
- CCn1cc([N+](=O)[O-])nc1C
→ -1.2 | 8 | 0 | -3.4% | 7% | 10% | -9%
- CC1CC(C(F)F)n2nc(C(=O)O)cc2N1 (stereo not given)
→ -1.5 | 6 | 9 | -1.4% | 13% | -15% | 4%
- COc1ccc(C=NNc2nc3c([nH]2)c(=O)n(C)c(=O)n3C)cc1
→ . | -2 | . | . | ? | . | 8%
- COc1ccc([N+](=O)[O-])cc1NC(=O)Cc1ccc(Cl)cc1
→ 1.6 | 0 | 2 | -1.2% | -2% | 13% | -18%
- O=C(Nc1ccc(-c2nnc3n2CCCCC3)cc1)c1cc2ccccc2o1
→ 10 | -19 | 1 | . | -17% | 1% | 20%[15.4 µM]
- Nc1ncnc2c1ncn2[C@@H]1O[C@H](CNS(=O)(=O)c2cc(S(=O)(=O)c3ccccc3)cs2)[C@@H](O)[C@H]1O
→ . | -1 | . | 0.8% | 6% | . | .
- Cc1ccc2c(CC(=O)N3CCc4ccccc43)coc2c1
→ 1.1 | 20 | 2 | 0.5% | -8% | 2% | -32%[inhibitor]
- CCN(Cc1ccccc1)S(=O)(=O)c1ccc(S(=O)(=O)N(Cc2cccc(OC)c2)CC2CCCO2)cc1 (stereo not given)
→ 1.3 | 15 | 9 | -2.7% | -2% | -5% | 1%
- COc1ccccc1CC(=O)NC(=O)c1ccccc1O
→ 1.2 | -6 | 18 | -14% | -10% | 7% | 8%[15.4 µM]
- CC(C)CN1C(=O)N(c2ccc(Cl)cc2)C(C)(O)CC1(C)C (stereo not given)
→ -5.3 | 8 | -10 | . | 4% | 4% | 8%

Structures from the list above containing a carbonyl joined to an NH by a bond outside any ring:
The line under a structure holds: Menin MLL FP FL | CtBP-E1A blk | TRPV1 potentiator | ClpP mod | gsp antagonist | Sfp inh | gsp ag
- CC(=O)Nc1c(Cl)cc2c(c1Cl)C(=O)c1ccccc1-2
→ . | -2 | . | -17% | -10% | . | 12%[15.4 µM]
- COc1cc(C(=O)NCC(=O)OCC(=O)c2cccc3ccccc23)cc(OC)c1OC
→ . | 9 | ? | 2.3% | 13% | 17% | -7%
- CCN1CCc2c(sc(NC(=S)NC(=O)c3ccco3)c2C(N)=O)C1
→ ? | -6 | -6 | . | -13% | 22µM* | -1%[15.4 µM]
- CCOc1ccc(S(=O)(=O)N2CCCCC2)cc1NC(=O)CSCc1c(C)noc1C
→ . | 3 | 4 | 0.3% | 0% | . | 3%[15.4 µM]
- COc1ccccc1NC(=O)N(C)C[C@@H]1Oc2ncc(Br)cc2C(=O)N([C@H](C)CO)C[C@@H]1C
→ . | -10 | . | 0.9% | . | . | ?
- COc1ccc([N+](=O)[O-])cc1NC(=O)Cc1ccc(Cl)cc1
→ 1.6 | 0 | 2 | -1.2% | -2% | 13% | -18%
- O=C(Nc1ccc(-c2nnc3n2CCCCC3)cc1)c1cc2ccccc2o1
→ 10 | -19 | 1 | . | -17% | 1% | 20%[15.4 µM]
- COc1ccccc1CC(=O)NC(=O)c1ccccc1O
→ 1.2 | -6 | 18 | -14% | -10% | 7% | 8%[15.4 µM]

More records
The line under a structure holds: Menin MLL FP FL | CtBP-E1A blk | TRPV1 potentiator | ClpP mod | gsp antagonist | Sfp inh | gsp ag
- COc1cc(/C=C/C(=O)Nc2ccc(S(=O)(=O)Nc3onc(C)c3C)cc2)cc(OC)c1OC
→ . | . | . | -9.8% | 6% | . | 23%
- Cn1c(SCC(=O)N2CCCc3ccccc32)nnc1-c1cccs1
→ 1.1 | 13 | -2 | 0.4% | -1% | 16% | 1%
- CCOC(=O)C1CCN(S(=O)(=O)c2cccc(-c3csc(C)n3)c2)CC1
→ 4.0 | -8 | -11 | -2.9% | -3% | 5% | -50%[inhibitor]
- COc1cccc(CN2C(=O)C3CCCN3c3ccc(S(=O)(=O)N4CCOCC4)cc32)c1 (stereo not given)
→ 19 | . | 1 | . | . | 15% | .
- COc1cccc(-c2csc(/C(C#N)=C/Nc3cc4oc5ccccc5c4cc3OC)n2)c1
→ 5.8 | -6 | -14 | . | 10% | -14% | -12%[15.4 µM]
- C=CCC(CC=C)(NC(=O)c1ccccc1C(=O)O)c1ccccc1
→ 4.2 | 6 | 4 | 0.7% | 8% | 15% | 4%[15.4 µM]
- Cc1nnc(-c2ccc(Oc3ccc(Br)cc3)c([N+](=O)[O-])c2)o1
→ 3.9 | 0 | -12 | 2.8% | 50µM* | -13% | -19%
- N#Cc1ccc(COC(=O)c2cc(=O)c3ccccc3o2)cc1
→ -0.2 | -14 | 10 | 1.2% | 0% | -5% | -4%
- O=C(C1=NOC(CNc2ncc(C(F)(F)F)cc2Cl)C1)N1CCOCC1 (stereo not given)
→ 2.1 | -20 | -9 | . | 9% | -3% | -2%
- Cc1nn(CCC#N)c2nc(C(F)(F)F)[nH]c(=O)c12
→ -0.6 | 5 | -22 | 1.4% | 0% | 1% | -34%[inhibitor]
- CC(C)NCC(=O)NC12CC3CC(CC(C3)C1)C2
→ -0.2 | -18 | 12 | 16µM* | 6% | -12% | -38%[inhibitor]
- Cc1cc(N2CCCCC2)nc2ccc(NC(=O)c3ccc(Br)o3)cc12
→ 4.3 | -18 | -15 | -7.1% | ? | 5% | -26%
- Cc1nn(-c2ccccc2)c(N)c1N=Nc1ccc2ccccc2c1
→ 2.7 | ? | -6 | . | -13% | ? | -4%
- CC(Oc1ccccc1Cl)C(=O)Nc1ccccc1C(=O)N1CCOCC1 (stereo not given)
→ 1.9 | 10 | -15 | -0.4% | -16% | 20% | -5%[15.4 µM]
- CCc1cccc(NC(=O)CN(C)S(=O)(=O)c2cnc[nH]2)c1
→ 1.7 | 2 | 3 | -2.2% | 3% | 7% | 14%
- O=C(NC1CCN(C(=S)NCCc2ccccc2)CC1)C1CC1
→ 0.3 | . | 1 | -1.5% | 4% | ? | -4%
- CCn1c(CC(=O)Nc2ccc(Cl)c(Cl)c2)nnc1SCc1ccc(C)cc1
→ 0.0 | 1 | ? | 0.5% | 12% | -16% | 13%
- Oc1c(C(c2cccs2)N2CCC3(CC2)OCCO3)sc2ncnn12 (stereo not given)
→ -1.6 | 0 | -6 | 0.6% | 2% | 15% | 12%
- O=C(NCc1ccccc1)C(c1ccc(F)cc1)N(Cc1ccc2c(c1)OCO2)C(=O)Cn1nnc(-c2cccs2)n1 (stereo not given)
→ 0.7 | -2 | 0 | ? | 10% | 18% | ?
- CC(=O)Oc1ccc2c(c1)C(=O)c1ccccc1C2=O
→ -4.6 | . | -6 | -0.1% | -1% | 14% | 20%
- CC(C)NS(=O)(=O)c1ccc(Br)c(C(=O)OC(C)C(=O)NC2CCCCC2C)c1 (stereo not given)
→ . | -4 | -5 | . | -8% | . | 12%[15.4 µM]
- O=C(O)CC(NC(=O)C(c1ccccc1)c1ccccc1)c1ccco1 (stereo not given)
→ 5.3 | 11 | 5 | 1.0% | 7% | 15% | ?
- COc1ccc(N2CCN(C(=O)C3CCN(S(=O)(=O)N4CCOCC4)CC3)CC2)cc1
→ 7.9 | 8 | 9 | -2.3% | -9% | 18% | -5%
- CC(C)NC(=O)c1ccc2c(c1)S(=O)(=O)c1ccccc1C2=O
→ ? | -2 | -48 | -1.2% | -3% | 20% | ?
- O=C(C1COc2ccccc2O1)N1CCN(S(=O)(=O)c2ccccc2)CC1 (stereo not given)
→ -3.9 | -3 | -3 | 3.3% | 2% | 8% | -6%
- CCCCCn1c(=O)c(-c2nc3ccccc3c(=O)[nH]2)c(O)c2ccccc21
→ -1.7 | . | -5 | . | . | 14% | .
- COc1cccc(OC)c1OCCOc1ccc(C(=O)c2ccccc2)cc1
→ . | 5 | 2 | -21% | -14% | 10% | -42%[inhibitor]
- COc1ccc2c(c1OC)C(=O)N1N=C(c3ccc(-c4ccccc4)cc3)CC21 (stereo not given)
→ -5.7 | . | 7 | -6.9% | -8% | 7% | 2%
- Clc1cccc(NCc2nnc(SCc3ccccc3Cl)o2)c1
→ 1.9 | 20 | -3 | 4.6% | -2% | -1% | -21%
- O=C(N/N=C/c1cn(-c2ccccc2)nc1-c1cc2ccccc2o1)c1ccncc1
→ 3.2 | 2 | -11 | 105% | -32% | 43%[activator] | 29%
- O=C(CSc1nc2ccsc2c(=O)n1Cc1ccc(C(=O)O)cc1)NCc1ccco1
→ 1.3 | 7 | 1 | -0.7% | -26% | 17% | 5%[15.4 µM]
- O=C(CCCn1cc([N+](=O)[O-])cn1)Nc1ccc2c(c1)OCO2
→ -7.0 | -2 | 20 | . | -5% | 15% | 18%
